High-throughput results from PubChem BioAssay.
HIV Env fusion: blocks HIV Env-driven cell-cell fusion. HeLa-JRFL Env/CEM21 cell fusion, luciferase. 360,000 compounds, 1.1% hits. AID 651610. inhibition, % at 12.3 µM;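 active means mean replicate inhibition score of at least 50 and every replicate individually at or above 50; inconclusive means only one of the two criteria met; inactive means mean below 50 and not all replicates reaching 50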;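 further: 0% = plate neutral controls and 100% = maraviroc near 300 nM; one replicate is shown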
Yeast UUG start: alters start codon recognition fidelity in yeast. S. cerevisiae UUG-firefly luciferase reporter, luminescence/redox ratio. activity score, % at 18.7 µM. 350,000 compounds, 0.13% hits;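 active means replicate mean at a twofold rise or more, about +100% in these data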;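 further: firefly luciferase made from a UUG start codon reports start codon fidelity; reporter light over untreated wells divided by growth signal over untreated wells; some hits fall short of that in this replicate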
MT1-MMP act inh: blocks activation of human MT1-MMP; HT1080 RFP-PRO-GFP cells, GFP/RFP ratio fluorescence, overnight; percent of plate control window, DMSO zero; GFP/RFP ratio change, % at 20 µM; 360,000 compounds, 0.061% hits;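 active means GFP/RFP ratio change of at least 30% with cell ATP level not reduced by more than half and red fluorescence within 50% of control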; further: strong numbers were not always called active
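Test system: HT1080 RFP-PRO-GFP cells; Benchmarks: DMSO and RFP-L50D-GFP cell wells; Timing: cells overnight before dosing, compound overnight, 37 °C, 5% CO2; Compound: one 20 µM compound dose with 1% DMSO; Read-out: GFP/RFP fluorescence ratio.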
CSC inhib: blocks cancer stem cells; cancer stem cell-like cells viability, luminescence; inhibition, % at 7.5 µM; 300,000 compounds, 1.1% hits; AID 2717;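 active means mean at 75% or more and at least half the replicates too; inconclusive means mean and replicates disagree; tested in HMLE shEcad cells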;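 further: 0% = median of negative and 100% = median of positive control wells; the first replicate is given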
Rce1 inh: blocks yeast Ras-converting enzyme. yeast membranes, quenched prenylated peptide cleavage fluorescence. 290,000 compounds, 0.27% hits. AID 2563. calls only;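 active means fall in fluorescence gain of 50% or more versus controls, with final raw signal at or below 3038400; inconclusive means same 50% fall but final raw signal above 3038400; inactive means fall in fluorescence gain under 50%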;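 further: plate controls were neutral control wells for no effect and wells lacking membranes for full effect; tested at 10 µM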
Target sequence (Q03530 whole entry, looked up): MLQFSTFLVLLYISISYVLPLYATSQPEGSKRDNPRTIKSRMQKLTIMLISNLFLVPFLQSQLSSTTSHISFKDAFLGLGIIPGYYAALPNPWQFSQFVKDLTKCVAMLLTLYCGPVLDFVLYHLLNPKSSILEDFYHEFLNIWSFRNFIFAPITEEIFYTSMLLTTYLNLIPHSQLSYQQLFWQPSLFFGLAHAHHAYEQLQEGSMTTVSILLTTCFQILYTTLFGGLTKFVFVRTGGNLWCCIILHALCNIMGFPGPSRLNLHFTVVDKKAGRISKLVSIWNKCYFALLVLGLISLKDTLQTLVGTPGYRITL
PABP FP inh: blocks human PABP binding to poly(A) RNA; P11940; inhibition, % at 35 µM; 290,000 compounds, 1% hits; fluorescence polarization;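 active means 50% or more with normal probe brightness, or confirmed in later tests; inconclusive means above 50% with abnormal brightness, or retests that disagree; inactive means below 50% or failed in later tests; about a fifth of its hits are not listed in these tables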;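 further: calls also rest on retests at 20 µM and on dose response follow-up; controls were probe without protein and protein plus probe with vehicle; some compounds called inactive have numbers as strong as hits; many hits fall short of the cut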
Target sequence (P11940 whole entry, looked up): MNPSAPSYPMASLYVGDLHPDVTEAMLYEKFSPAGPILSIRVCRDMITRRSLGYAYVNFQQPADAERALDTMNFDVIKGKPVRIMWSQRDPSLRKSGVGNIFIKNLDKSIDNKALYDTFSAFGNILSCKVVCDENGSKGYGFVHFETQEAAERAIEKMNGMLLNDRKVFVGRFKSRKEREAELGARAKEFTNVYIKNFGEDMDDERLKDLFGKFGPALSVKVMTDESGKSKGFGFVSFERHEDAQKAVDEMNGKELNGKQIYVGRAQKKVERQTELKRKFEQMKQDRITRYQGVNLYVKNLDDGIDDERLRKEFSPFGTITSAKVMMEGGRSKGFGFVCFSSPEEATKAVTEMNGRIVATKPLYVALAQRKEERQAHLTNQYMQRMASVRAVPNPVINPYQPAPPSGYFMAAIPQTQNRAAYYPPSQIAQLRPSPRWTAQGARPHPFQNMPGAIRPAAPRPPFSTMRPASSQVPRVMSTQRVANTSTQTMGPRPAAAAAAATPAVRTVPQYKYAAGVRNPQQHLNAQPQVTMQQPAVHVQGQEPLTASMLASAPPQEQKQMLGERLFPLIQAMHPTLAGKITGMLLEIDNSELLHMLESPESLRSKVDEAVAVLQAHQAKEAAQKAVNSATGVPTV
eIF4H inh: inhibitors of RNA binding by human eIF4H; inhibition, % at 35 µM; 290,000 compounds, 0.94% hits; eIF4H fluorescence polarization binding assay; Q15056;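 active means 50% or more with normal probe brightness, or confirmed in later tests; inconclusive means above 50% with abnormal brightness, or retests that disagree; inactive means below 50% or failed in later tests; about a fifth of its hits are not listed in these tables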;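 further: calls also rest on retests at 20 µM and on dose response follow-up; 0% = protein and probe with vehicle and 100% = probe without protein; strong numbers were not always called active; many hits fall short of the cut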
eIF4H inh retest: recorded beside eIF4H inh, whose call it bears; inhibition, %; compound at 20 µM; confirmation average;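 mean of two retest wells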
PABP FP inh retest: second read-out of PABP FP inh, no call of its own (marks repeat the call); inhibition, %; compound at 20 µM; confirmation repeats;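 mean of two retest wells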
MT1-MMP act inh RFP: recorded beside MT1-MMP act inh, whose call it bears; RFP signal change, %; measured here: RFP expression control read;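 0 = vehicle wells; hits needed this value within 50% of zero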
The depositor's hits bear a star; i = inactive; u = inconclusive; x = no result given.

SMILES | HIV Env fusion | Yeast UUG start | MT1-MMP act inh | MT1-MMP act inh RFP | CSC inhib | Rce1 inh | PABP FP inh | eIF4H inh | others
OC(c1cccc(Cl)c1)c1nc(/C=C/c2ccccc2)cs1 (centres undefined) | -10 | -23 | 7 | 1 | x | x | x | x
Cc1cccc(CSCc2ccc(C(=O)NCC3CCCO3)o2)c1 (centres undefined) | 12 | -6 | -2 | -1 | -11 | i | -3 | 2
COc1ccc(NC(=S)Nc2ccc(S(N)(=O)=O)cc2)c(C)c1 | u | x | -1 | -4 | -12 | i | 3 | 7
c1cn(-c2ncnc3sc4c(c23)CCCC4)cn1 | x | -20 | -9 | -4 | -18 | i | -2 | 3
O=C(O)c1ccc(-n2c(-c3ccc(Br)cc3)n[nH]c2=S)cc1 | x | x | 2 | 8 | 26 | i | 18 | -10
O=C(/C=C\Nc1ccc2c(c1)OCO2)c1ccc2c(c1)OCO2 | -176 | x | -1 | 0 | -12 | i | -13 | -13
COc1ccc2c(c1)c(C(=O)N/N=C/c1cccs1)c(C)n2C | -6 | -20 | 0 | 0 | -12 | i | 11 | 7
O=C1CC(NNc2nc3ccccc3s2)C(=O)N1c1ccccc1 (centres undefined) | -22 | -5 | 1 | 0 | -5 | i | -1 | 14
CC(=O)NC(=S)NNC(=O)COc1ccc([N+](=O)[O-])cc1 | 13 | x | 0 | 2 | -10 | i | -6 | 4
Cc1ccc(S(=O)(=O)N(C)c2ccc(OC(=O)COc3ccccc3)cc2)cc1 | 33 | -25 | -2 | 3 | 12 | x | x | x
CC(C(=O)O)n1cc(Cl)cn1 (centres undefined) | 14 | x | 2 | -1 | -1 | i | -5 | -8
COc1ccc(C(=O)Nc2cc(S(=O)(=O)N3CCCCC3)ccc2C)cc1 | 20 | -2 | 3 | -3 | x | x | x | x
CC(=O)N1[C@H](Cc2ccccc2)C=C[C@]1(C)C(=O)NCCc1c[nH]c2ccccc12 | -8 | -7 | -3 | -1 | -8 | i | -2 | -3
O=S(=O)(c1ccc(N2CCCC2)nc1)N1CCCC1 | -3 | -12 | 3 | -1 | 1 | i | -4 | -4
CCCS(=O)(=O)NC(=O)C1(C)CCN(C(=O)c2c(F)cccc2F)C1 (centres undefined) | -16 | -7 | 4 | 4 | x | x | x | x
O=C(OCC(=O)N1N=C(c2ccc(Cl)cc2)CC1c1ccco1)c1ccccc1O (centres undefined) | x | -22 | -15 | -5 | 14 | i | 5 | -12
CCN1C(=O)[C@H]2[C@H]3CN=C(SC)N3[C@@](Cc3ccccc3)(C(=O)OC)[C@H]2C1=O | 3 | -28 | 4 | 0 | x | x | x | x
CCNC(=O)NC(=O)C(C)OC(=O)c1oc2ccc(OC)cc2c1C (centres undefined) | -9 | -10 | 4 | -1 | -2 | i | -14 | 2
CC1(C(=O)O)C=CCN1C(=O)c1ccccc1 (centres undefined) | 2 | -1 | 2 | 5 | -10 | i | 7 | -12
C[C@H](NC(=O)N1CCn2c1nc1ccccc12)C(=O)NCc1ccco1 | -1 | 19 | 2 | 3 | -15 | i | x | x
O=C(Nc1nncs1)C1CCCC1 | -2 | x | -2 | 4 | -7 | i | x | x
CCOCCCNC(=O)Cn1nc(-c2ccccc2)ccc1=O | 19 | -29 | -1 | 2 | -4 | i | 25 | -10
CCOc1ccc(CCNC(=O)C2=C(C)C(=O)OC23CCC(C)CC3)cc1OCC (centres undefined) | u | x | -3 | -12 | -4 | i | -9 | 1
C[C@H](CO)N1C[C@H](C)[C@@H](CN(C)C(=O)Nc2ccc(C(F)(F)F)cc2)Oc2ccc(NS(=O)(=O)c3ccc(F)cc3)cc2C1=O | -11 | -23 | 1 | -4 | 5 | x | x | x
O=C(CSc1ccc(Br)cc1)NC1CCS(=O)(=O)C1 (centres undefined) | x | -5 | 19 | 1 | -2 | i | x | x
The results go on.
SMILES | HIV Env fusion | Yeast UUG start | MT1-MMP act inh | MT1-MMP act inh RFP | CSC inhib | Rce1 inh | PABP FP inh | eIF4H inh | others
COc1ccc(OC)c(/C=C/C(=O)OCC(=O)N2CCN(S(=O)(=O)c3ccc(C)cc3C)CC2)c1 | 5 | -8 | -5 | 0 | x | x | x | x
COc1ccc(C(=O)CSc2nnc(C3CC3)n2N)cc1 | -86 | -4 | 0 | -1 | -3 | i | 0 | -8
CCOC(=O)C1CCCN(CC(=O)Nc2c(C(=O)OC)[nH]c3ccc(Cl)cc23)C1 (centres undefined) | x | -7 | -5 | -7 | 3 | i | -3 | 7
O=C(NCc1ccco1)c1cc(-c2ccccc2)on1 | x | -9 | 9 | 4 | 12 | i | 4 | -1
CCOc1ccc(CNC(=O)c2ccco2)cc1 | 11 | 4 | -10 | -7 | -4 | i | -3 | -2
CNCC[C@@H](Oc1ccc(C(F)(F)F)cc1)c1ccccc1 | 0 | 7 | -4 | -1 | 24 | x | x | x
Cc1ccc(C2C(=O)N(C3CCC(C)CC3)CC(=O)N2C2CCCC2)cc1 (centres undefined) | -6 | -11 | -16 | -9 | -2 | i | 5 | 6
Cc1ccc(-c2ccc(/C=N\NC(=O)C3C(=O)NCC3c3ccccc3)o2)cc1Cl (centres undefined) | -94 | -19 | -4 | -3 | 55 | i | -8 | 1
Cc1ccc(O)c(-c2cc(-c3cccc(Br)c3)n[nH]2)c1 | -29 | -12 | 4 | 1 | 12 | i | 1 | -11
O=C(CC[C@H]1O[C@@H](n2cnc3c(NC(=O)c4ccccc4)ncnc32)[C@H](O)[C@@H]1O)NCC1CCN(Cc2ccccc2)CC1 | 8 | -2 | 6 | 4 | x | x | x | x
Cc1cc(C(=O)OCn2nnc3ccccc3c2=O)c(C)n1-c1ccccc1 | x | -2 | -6 | -9 | -15 | i | -9 | -11
Cc1ccccc1NC(=O)COc1coc(CN2CCN(c3ccccc3)CC2)cc1=O | -3 | -21 | -1 | -11 | -8 | i | x | x
O=C(CCNC(=O)c1ccc([N+](=O)[O-])cc1)Nc1nccs1 | -8 | x | -16 | -5 | -12 | i | 36 | -2
O=C(Nc1ccc(Br)cc1Cl)Nn1cnnc1 | -19 | -19 | -2 | 0 | -10 | i | 3 | 5
Cc1ccc(-c2nnn(CC(=O)N(c3ccccc3F)C(C(=O)NCC3CCCO3)c3c[nH]c4ccccc34)n2)cc1 (centres undefined) | -38 | -19 | -2 | -5 | 7 | i | -7 | -1
Cc1cccc(NS(=O)(=O)c2cccc(C(=O)N3CCN(c4ccccn4)CC3)c2)c1 | -1 | -5 | 5 | -6 | -10 | i | -12 | 6
Cc1noc(NS(=O)(=O)c2ccc(NC(=O)C(C)(C)C)cc2)c1C | -9 | -24 | 0 | 1 | -15 | i | 0 | 6
N#C/C(=N\Nc1ccc(Cl)c(Cl)c1)C(=O)C1CC1 | 8 | -7 | -1 | -39 | 70 | i | 3 | 12
CC(=O)Nc1ccc(-c2csc(NC=C3C(=O)OC(C)(C)OC3=O)n2)cc1 | -3 | x | 1 | -1 | 13 | i | 8 | 6
O=C(CNC(=O)c1ccc(-c2ccccc2)cc1)OCc1c(F)cccc1Cl | 9 | x | 0 | 3 | -4 | i | 4 | -8
CC(=O)NC(=S)Nc1ccccc1N1CCCCC1 | u | x | 3 | 5 | x | i | -3 | -8
CCCOc1ccc(NC(=O)C(=O)NCCCn2ccnc2)cc1 | -39 | x | 0 | 2 | -3 | i | -3 | 4
O=C(CSc1nnc(CNC(=O)c2ccc(F)cc2)o1)Nc1ccc2c(c1)OCCO2 | -11 | -8 | 1 | 1 | -6 | i | 0 | 1
Cc1cccc(CCN2C(N(C)C)=NC[C@@H]2Cc2ccccc2)c1 | -4 | -3 | -2 | 1 | 18 | x | x | x
COc1ccc(C)cc1NC(=O)CN(C)S(=O)(=O)c1ccc2c(c1)CCCN2C(C)=O | 6 | -7 | -1 | -2 | -8 | i | -4 | -2
(further entries)
SMILES | HIV Env fusion | Yeast UUG start | MT1-MMP act inh | MT1-MMP act inh RFP | CSC inhib | Rce1 inh | PABP FP inh | eIF4H inh | others
Cn1ncc2c(NCCO)nc(Cl)nc21 | -4 | -6 | 0 | 2 | x | x | x | x
Cc1ccc(-c2n[nH]c(=S)n2C)cc1 | x | x | 6 | 8 | x | i | 1 | -9
COc1cc2nc(CN3CCN(C(c4ccccc4)c4ccccc4)CC3)[nH]c(=O)c2cc1OC | x | x | x | x | 9 | i | -11 | -8
O=C(CC(NC(=O)c1ccccc1Cl)c1ccccc1)Nc1ccc2c(c1)OCO2 (centres undefined) | -64 | -15 | -1 | 5 | -4 | i | 5 | 8
Cn1cccc1C(=O)NCc1ccc(S(N)(=O)=O)cc1 | 4 | -16 | 5 | 7 | -8 | i | 3 | -15
O=C(COC(=O)COc1cccc(C(F)(F)F)c1)NC(=O)NC1CCCCC1 | x | -20 | 0 | 2 | -7 | i | x | x
Clc1cccc(Cl)c1CSc1nnc(-c2ccncc2)s1 | -21 | x | 10 | -15 | 9 | i | 3 | -7
COc1ccc(CCNC(=O)CCS(=O)(=O)c2ccc3nc(C)sc3c2)cc1OC | -13 | -7 | -4 | 3 | x | i | -12 | 6
CS(=O)(=O)N(CC(=O)N1CCCCCC1)c1cccc(Cl)c1Cl | -2 | 1 | 2 | -1 | -19 | i | -13 | -12
COc1ccc(CNC(=O)c2cc(-c3ccncc3)nc3c(C)cc(C)cc23)cc1OC | -30 | x | -3 | -9 | 13 | i | -6 | -23
COc1ccc(COC(=O)CN2C(=O)NC3(CCCC3)C2=O)cc1F | -6 | -8 | -4 | 1 | -14 | i | x | x
C/C(=N\NC(=O)c1ccc(Cl)c(Cl)c1)c1cccc(NC(=O)C(C)C)c1 | x | -8 | 3 | 4 | -8 | i | -6 | -5
COCCNC(=O)C(c1ccc(C)cc1)N(Cc1ccccc1)C(=O)CCC(=O)Nc1ccccn1 (centres undefined) | 15 | 2 | 4 | 5 | 1 | i | -8 | -3
CCn1cc(/C=C(\NC(=O)c2ccc(C)cc2)C(=O)NCCCN2CCOCC2)c2ccccc21 | -11 | -10 | 0 | 2 | x | i | 2 | 2
O=C(O)c1cc(Cl)c(Cl)cc1C(=O)Nc1cccc2ncccc12 | -1 | -9 | 6 | 4 | 2 | i | 15 | 95 | eIF4H inh retest=2;PABP FP inh retest=10
CC1(C)OC(=O)N(NCc2ccccc2)C1(C)O (centres undefined) | -9 | -3 | 3 | 9 | 6 | i | -12 | 5
CCN(CC(=O)Nc1ccc2c(c1)OCCO2)C(=O)c1ccc(Cl)cc1Cl | -69 | x | 10 | 0 | 10 | i | x | x
CCCN(CCC)S(=O)(=O)c1ccc(C(=O)N2CCOCC2)cc1 | -32 | -10 | 6 | 2 | 3 | i | -10 | -6
COc1ccc(CN2CCC(C(=O)N3CCCC(C)C3)CC2)cc1OC (centres undefined) | -2 | -3 | 5 | 6 | -5 | i | -5 | 4
COc1ccccc1CCNC(=O)Cn1ccc2cc(S(=O)(=O)N3CCCC3)ccc21 | 0 | -12 | -1 | -6 | 2 | i | 5 | -12
CN(C)c1ccc(C#Cc2ccc3cc(CCCO)oc(=O)c3c2)cc1 | -81 | -12 | 4 | -5 | -6 | x | x | x
Clc1ccc(C2Nc3cccc4cccc(c34)N2)cc1 | 4 | -17 | -9 | 4 | 5 | i | 55* | 86*
Cc1nn(CC(=O)O)c(=O)c2ccccc12 | -113 | -22 | -3 | -16 | -9 | i | -9 | -5

Outcome played no part in choosing rows (roughly 3% active in at least one column).
